Yeast UUG start: yeast start codon fidelity modulation. actives 0.13% (n = 350,000). S. cerevisiae UUG-firefly luciferase reporter, luminescence/redox ratio. activity score, % at 18.7 µM;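 active = replicate mean at a twofold rise or more, about +100% in these data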;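 also: firefly luciferase made from a UUG start codon reports start codon fidelity; reporter light over untreated wells divided by growth signal over untreated wells; some hits fall short of that in this replicate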
MT1-MMP act inh: blocks activation of human MT1-MMP; actives 0.061% (n = 360,000); AID 651647; HT1080 RFP-PRO-GFP cells, GFP/RFP ratio fluorescence, overnight; percent of plate control window, DMSO zero; P50281; GFP/RFP ratio change, % at 20 µM;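 active = GFP/RFP ratio change of at least 30% with cell ATP level not reduced by more than half and red fluorescence within 50% of control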; also: strong numbers were not always called active
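Assay system: HT1080 cells carrying an RFP-PRO-GFP reporter | Dosing: Single dose of 20 µM compound, 1% DMSO final | Incubation: Cells overnight before dosing, compound overnight, 37 °C, 5% CO2 | Evaluation: GFP/RFP fluorescence ratio | Control set: DMSO and RFP-L50D-GFP cell wells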
HIV Env fusion: inhibitors of HIV Env-mediated cell fusion; HeLa-JRFL Env/CEM21 cell fusion, luciferase; inhibition, % at 12.3 µM; actives 1.1% (n = 360,000);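 active = mean replicate inhibition score of at least 50 and every replicate individually at or above 50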;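 also: 0% = plate neutral controls and 100% = maraviroc near 300 nM; one replicate is shown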
CSC inhib: blocks cancer stem cells | cancer stem cell-like cells viability, luminescence | inhibition, % at 7.5 µM | actives 1.1% (n = 300,000);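 active = mean at 75% or more and at least half the replicates too; tested in HMLE shEcad cells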;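 also: 0% = median of negative and 100% = median of positive control wells; the first replicate is given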
eIF4H FP inh: inhibitors of RNA binding by human eIF4H; actives 0.94% (n = 290,000); eIF4H fluorescence polarization binding assay; AID 2012; Q15056; inhibition, % at 35 µM;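 active = 50% or more with normal probe brightness, or confirmed in later tests; about a fifth of its hits are not listed in these tables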;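 also: calls also rest on retests at 20 µM and on dose response follow-up; 0% = protein and probe with vehicle and 100% = probe without protein; strong numbers were not always called active; many hits fall short of the cut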
PABP FP inh: blocks human PABP binding to poly(A) RNA | P11940 | fluorescence polarization | inhibition, % at 35 µM | actives 1% (n = 290,000) | AID 2014;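 active = 50% or more with normal probe brightness, or confirmed in later tests; about a fifth of its hits are not listed in these tables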;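 also: calls also rest on retests at 20 µM and on dose response follow-up; controls were probe without protein and protein plus probe with vehicle; some compounds called inactive have numbers as strong as hits; many hits fall short of the cut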
Target sequence (P11940 whole entry, looked up): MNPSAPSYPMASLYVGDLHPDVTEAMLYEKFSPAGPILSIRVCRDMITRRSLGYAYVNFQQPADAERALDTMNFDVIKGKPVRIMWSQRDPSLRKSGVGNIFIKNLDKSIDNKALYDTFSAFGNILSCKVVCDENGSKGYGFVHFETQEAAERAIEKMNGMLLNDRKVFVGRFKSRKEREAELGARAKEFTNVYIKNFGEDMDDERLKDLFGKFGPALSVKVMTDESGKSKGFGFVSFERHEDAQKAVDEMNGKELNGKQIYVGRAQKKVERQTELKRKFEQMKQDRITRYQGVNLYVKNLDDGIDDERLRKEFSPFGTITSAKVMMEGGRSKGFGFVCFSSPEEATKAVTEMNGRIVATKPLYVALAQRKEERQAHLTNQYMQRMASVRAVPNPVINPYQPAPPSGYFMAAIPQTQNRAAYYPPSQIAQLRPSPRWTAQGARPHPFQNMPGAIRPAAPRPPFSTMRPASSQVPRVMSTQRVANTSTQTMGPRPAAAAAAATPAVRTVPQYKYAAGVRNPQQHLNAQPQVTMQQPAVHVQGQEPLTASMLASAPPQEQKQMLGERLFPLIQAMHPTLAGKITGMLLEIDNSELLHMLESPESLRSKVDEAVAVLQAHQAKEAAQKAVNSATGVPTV
Rce1 inh: inhibitors of yeast Ras-converting enzyme | yeast membranes, quenched prenylated peptide cleavage fluorescence | calls only | actives 0.27% (n = 290,000);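 active = fall in fluorescence gain of 50% or more versus controls, with final raw signal at or below 3038400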;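 also: plate controls were neutral control wells for no effect and wells lacking membranes for full effect; tested at 10 µM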
Target sequence (Q03530 whole entry, looked up): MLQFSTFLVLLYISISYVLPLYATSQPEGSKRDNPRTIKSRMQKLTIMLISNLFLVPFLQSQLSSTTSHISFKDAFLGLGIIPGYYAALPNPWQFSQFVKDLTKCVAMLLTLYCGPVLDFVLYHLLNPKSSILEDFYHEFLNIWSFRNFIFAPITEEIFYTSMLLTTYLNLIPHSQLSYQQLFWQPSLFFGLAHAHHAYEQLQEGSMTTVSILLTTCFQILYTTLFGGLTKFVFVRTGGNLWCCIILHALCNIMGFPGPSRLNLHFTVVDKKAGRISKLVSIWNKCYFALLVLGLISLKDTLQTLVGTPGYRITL
eIF4H FP inh retest: recorded beside eIF4H FP inh, whose call it bears; inhibition, %; compound at 20 µM; confirmation average;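 mean of two retest wells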
PABP FP inh retest: also measured in PABP FP inh; calls as there; inhibition, %; compound at 20 µM; confirmation repeats;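 mean of two retest wells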
MT1-MMP act inh RFP: second read-out of MT1-MMP act inh, no call of its own (marks repeat the call); RFP signal change, %; measured here: RFP expression control read;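 0 = vehicle wells; hits needed this value within 50% of zero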
* hit, by the source's call; i = inactive; x = no result given; & = joins results of further samples; [ ] = remark or other dose. An excerpt, so the mix of outcomes need not match the whole.

SMILES | Yeast UUG start | MT1-MMP act inh | MT1-MMP act inh RFP | HIV Env fusion | CSC inhib | eIF4H FP inh | PABP FP inh | Rce1 inh | others
CC(C)(CC(=O)O)CC(=O)NCc1c(Cl)cccc1Oc1ccccc1 | x | 0 | 5 | -1 | -6 | 6 | -5 | i
CS(=O)(=O)N(CC(=O)NC1CCCCC1)Cc1ccc(Cl)cc1 | -18 | -31 | -8 | -31 | -15 | -1 | -13 | i
COc1ccccc1Oc1cc(F)nc(N)n1 | x | -3 | -5 | -22 | -9 | -6 | -6 | i
CCC(C)Sc1ccc([C@H]2N[C@@](C)(C(=O)OC)[C@H]3C(=O)N(C)C(=O)[C@@H]23)cc1 (stereo partly drawn) | -17 | 7 | 4 | -14 | x | x | x | x
CCCc1cc(=O)oc2c(C)c(OCC(=O)Nc3cccnc3)ccc12 | -22 | 1 | 4 | 15 | -3 | -1 | 6 | i
CC1CCCC(C)N1C(=O)COC(=O)c1cc(=O)[nH]c2ccccc12 (stereo not drawn) | x | 0 | 0 | -3 | -19 | x | x | x
CCCC(C)NC(=O)c1ccc(-c2ccccc2)cc1 (stereo not drawn) | x | x | x | x | -4 | -3 | 8 | i
COc1ccccc1OCCCc1c(C)n[nH]c1C | -18 | -4 | 1 | x | -5 | -12 | 11 | i
CNc1ccc(C(=O)OCC(=O)NC(=O)NC2CCCCC2)cc1[N+](=O)[O-] | 28 | 1 | 0 | 14 | -9 | x | x | x
O=C(/C=C/c1ccccc1Br)c1ccc2c(c1)OCO2 | -9 | -2 | -3 | -1 | 24 | 0 | 16 | i
CCN1CCN(Cc2nc3c(c(=O)n(C)c(=O)n3C)n2C(C)C(C)=O)CC1 (stereo not drawn) | -11 | 0 | -1 | -37 | -1 | 2 | 2 | i
O=C(NCc1ccc(Cl)cc1)c1cc(=O)nc2sc(-c3ccccc3)nn12 | 0 | -2 | -4 | x | 14 | 6 | -5 | i
Cc1cccc(-c2nc(CN3CCCC(C(=O)NC4CCCC4)C3)c(C)o2)c1 (stereo not drawn) | 3 | x | x | 2 | 13 | -2 | -2 | i
CC1(C)CC(=O)C=C(Nc2ccc(O)c(C(=O)O)c2)C1 | 0 | 2 | 3 | 1 | -11 | 18 | 13 | i
O=C(N/N=C/c1cc(Br)cc(Cl)c1O)c1ccc2c(c1)OCO2 | -30 | -2 | -6 | 19 | 59 | x | x | i
CCOCCn1c(COc2ccc(C)cc2)nc2ccccc21 | x | 4 | 1 | -21 | 7 | -5 | 3 | i
COc1cc(-c2noc(C)c2C(=O)NCCO)cc(OC)c1OC | -8 | -2 | 1 | 10 | x | -14 | 8 | i
COC(=O)c1cccc(Nc2ncnc3sccc23)c1 | x | -3 | -11 | -12 | -11 | -8 | -6 | i
C/C(=N\NC(=O)c1ccc(F)cc1)c1ccc(NC(=O)Cc2ccccc2)cc1 | -6 | 2 | 4 | -16 | -5 | 2 | 10 | i
C[C@@H]1CN([C@H](C)CO)C(=O)CCCn2nncc2CO[C@@H]1CN(C)S(=O)(=O)c1ccc(F)cc1 | -12&7 | 1 | 4 | -2[16.7 µM] | x | x | x | x
Cc1ccc(-c2csc(Cc3nc(-c4ccc5c(c4)CCC(=O)N5)cs3)n2)cc1 | -4 | -3 | -1 | 12 | -5 | 63 | 5 | i | eIF4H FP inh retest=0;PABP FP inh retest=4
COc1cc(-c2nnc(COC(=O)c3ccc(C)o3)o2)cc(OC)c1OC | -9 | 2 | -1 | -10 | x | x | x | x
COc1ccc(S(=O)(=O)NCC2CCCN(Cc3cccc(C(C)=O)c3)C2)cc1 (stereo not drawn) | -13 | -4 | -1 | -8 | -3 | -7 | -12 | i
COC(=O)C1=C(SC)N(c2ccc(OC)cc2)C(c2ccccc2)CC1=O (stereo not drawn) | 11 | -1 | 5 | 1 | 0 | -5 | -3 | i
CCC(C)N1CCCC1C(=O)Nc1c(C)cc(C)cc1C (stereo not drawn) | 0 | -1 | -4 | x | -17 | 3 | 1 | i
COC(=O)CCC(=O)OC1(C)C(=O)C=C2C=C(C3CC3)N(C3CCCCC3)C=C2C1=O (stereo not drawn) | -18 | -1 | 3 | -14 | -18 | 11 | 17 | i
CCC(c1nnc(SCC(=O)Nc2ccc(C(N)=O)cc2)n1Cc1ccccc1)N(C)C (stereo not drawn) | -3 | 1 | 3 | -332 | -12 | 5 | -1 | i
COc1ccc(/C=C/C(=O)Nc2ccc(-c3nnc4n3CCCCC4)cc2)c(OC)c1 | x | 4 | 0 | -14 | 28 | 5 | 17 | i
CCCS(=O)(=O)NC(=O)C1(C)CCCN(C(=O)c2cccc(OC(F)(F)F)c2)C1 (stereo not drawn) | -1 | 6 | 6 | 4 | x | x | x | x
COc1cc(/C=C2/C(=O)N(c3ccccc3)N=C2C)ccc1OS(=O)(=O)c1ccccc1 | x | x | x | x | -6 | 0 | 29 | i
COc1cc(CC(=O)NNC(=O)c2cc(C)oc2C)cc(OC)c1OC | -6 | 0 | 2 | -3 | -15 | 5 | 8 | i
COc1oc(-c2ccccc2)nc1C(F)(F)F | -9 | 1 | 3 | x | -3 | -3 | -1 | i
CC(C)C(NC(=O)c1ccco1)C(=O)OCC(=O)c1ccccc1 (stereo not drawn) | x | 0 | 3 | -5 | -1 | -14 | 10 | i
COc1ccc(C(=O)NCC(c2cccnc2)N2CCN(c3ccc(F)cc3)CC2)cc1OC (stereo not drawn) | -7 | 0 | -2 | -8 | -2 | -3 | 0 | x
CC[C@@H]1C(c2ccccc2)=NN(c2ccccc2)[C@H]1C(=O)N1CCOC1=O | 14 | 1 | 2 | -21 | x | x | x | x
C[C@@H]1C=C(C(=O)NC2CC2)O[C@H](OCc2ccc(CO)cc2)C1 | -11 | 1 | 3 | 3 | -6 | -5 | 6 | i
COc1cc2oc(=O)cc(-c3ccc(-c4ccc(OC(F)(F)F)cc4)cc3)c2c(OC)c1OC | 6 | 3 | -7 | -2 | x | x | x | x
O=C(c1cc(F)ccc1F)C1CCCN(C(=O)c2ccc(F)cc2Cl)C1 (stereo not drawn) | -7 | 0 | -6 | 1 | -4 | 6 | -10 | i
Cc1nn(Cc2ccc(Cl)c(Cl)c2)c(C)c1NC(=O)c1cn(-c2ccccc2)nc1-c1ccccc1 | -7 | -10 | -17 | -57 | 18 | -4 | -6 | i
C[C@H](O)[C@@H]1C(=O)N2CCc3ccc(N4CCOCC4)cc3[C@@H]2C[C@@H]1N(C)C(=O)Nc1ccccc1 | -32 | 3 | 7 | -5 | x | x | x | x
CC(C(=O)NCCc1nc2ccccc2[nH]1)n1cc([N+](=O)[O-])cn1 (stereo not drawn) | x | 2 | 3 | 13 | -3 | 7 | 82 | i | eIF4H FP inh retest=-3;PABP FP inh retest=1
CC1CCN(c2ccc(NC(=O)c3ccc(Br)o3)cc2)CC1 | -17 | 6 | 0 | -66 | 2 | -4 | 10 | i
COc1ccc(C2NN=C(c3c[nH]c4ccccc34)C2O)cc1 (stereo not drawn) | -2 | -8 | 4 | -3 | 50 | -21 | -26 | i
CCOC(=O)c1c(NC(=O)c2c(C(=O)O)cccc2[N+](=O)[O-])sc(C)c1C | -31 | -8 | -3 | 8 | -13 | 5 | 1 | i
Cc1cc(NC(=O)NC(=O)c2ccccc2F)no1 | -20 | 1 | 4 | -45 | -1 | -14 | -8 | i
O=S(=O)(c1ccc(S(=O)(=O)N(Cc2ccccc2)Cc2ccco2)cc1)N1CCCC1 | -9 | 5 | 0 | -76 | -4 | x | x | i
Cc1ccc(C(=O)NC(C)c2ccc(C)c(C)c2)s1 (stereo not drawn) | x | -1 | -5 | 5 | -3 | x | x | i
COC(=O)C1=C(O)/C(=C\c2ccc(OCC(=O)Nc3ccc(OC)cc3)cc2)N=C1C | -5 | -1 | 2 | 4 | -25 | 20 | 25 | i

Among those listed so far, 6 have a Cl atom:
SMILES | Yeast UUG start | MT1-MMP act inh | MT1-MMP act inh RFP | HIV Env fusion | CSC inhib | eIF4H FP inh | PABP FP inh | Rce1 inh | others
CC(C)(CC(=O)O)CC(=O)NCc1c(Cl)cccc1Oc1ccccc1 | x | 0 | 5 | -1 | -6 | 6 | -5 | i
CS(=O)(=O)N(CC(=O)NC1CCCCC1)Cc1ccc(Cl)cc1 | -18 | -31 | -8 | -31 | -15 | -1 | -13 | i
O=C(NCc1ccc(Cl)cc1)c1cc(=O)nc2sc(-c3ccccc3)nn12 | 0 | -2 | -4 | x | 14 | 6 | -5 | i
O=C(N/N=C/c1cc(Br)cc(Cl)c1O)c1ccc2c(c1)OCO2 | -30 | -2 | -6 | 19 | 59 | x | x | i
O=C(c1cc(F)ccc1F)C1CCCN(C(=O)c2ccc(F)cc2Cl)C1 (stereo not drawn) | -7 | 0 | -6 | 1 | -4 | 6 | -10 | i
Cc1nn(Cc2ccc(Cl)c(Cl)c2)c(C)c1NC(=O)c1cn(-c2ccccc2)nc1-c1ccccc1 | -7 | -10 | -17 | -57 | 18 | -4 | -6 | i

(listing goes on)
SMILES | Yeast UUG start | MT1-MMP act inh | MT1-MMP act inh RFP | HIV Env fusion | CSC inhib | eIF4H FP inh | PABP FP inh | Rce1 inh | others
O=C(NCCCN1CCOCC1)c1cc(-c2ccc(Cl)cc2)on1 | -9 | -2 | 0 | x | -11 | -1 | 0 | i
O=C(COc1ccc(S(=O)(=O)N2CCOCC2)cc1)N1CCc2ccccc2C1 | -6 | 6 | -1 | -17 | -13 | -7 | -2 | i
CC(=O)N(/N=C/c1ccc([N+](=O)[O-])o1)c1nc2ccccc2c(=O)n1-c1ccccc1 | x | 0 | 1 | 8 | -4 | -8 | -14 | i
COc1ccc(NC(=O)c2cc(-c3cc(Cl)ccc3C)n[nH]2)cc1OC | 0 | 2 | 1 | -4 | x | x | x | x
C/C(CC(=O)Nc1ccc2c(c1)OCO2)=N\NC(=O)c1ccc(N)cc1 | -24 | 2 | 4 | -3 | -4 | -15 | 2 | i
CCSc1nnc(-c2cc3c(s2)-c2ccccc2CC3)o1 | x | -2 | 2 | x | 4 | 22 | -3 | i
COC(=O)Cn1c(CN(C)Cc2ccccc2)nc2c1c(=O)n(C)c(=O)n2C | -28 | 4 | -3 | -7 | -19 | -8 | -6 | i
C[C@@H]1CN([C@@H](C)CO)C(=O)CCCn2nncc2CO[C@@H]1CN(C)C(=O)Nc1ccccc1F | -9&-6 | -4 | 1 | 16 | x | x | x | x
COc1ccccc1OCCn1c(CO)nc2ccccc21 | -16 | 3 | -7 | -16 | -11 | -6 | -5 | i
Cn1ccc2c(-c3cccc4ccccc34)cc3c(c21)C1CCC3O1 (stereo not drawn) | -6 | 2 | 1 | 29 | x | x | x | x
CCN=c1sc2ccccc2n1CC(O)COc1ccccc1 (stereo not drawn) | x | -2 | -3 | x | 2 | -2 | -6 | i
CCn1c(CCNC(=O)c2ccco2)nc2ccccc21 | -8 | -1 | 0 | -13 | -12 | -7 | 14 | i
COc1ccc(C(=O)NCc2nnc(SCC(=O)Nc3ccccc3OC)o2)cc1 | -13 | -2 | 4 | 4 | -13 | -13 | 11 | i
CCCOc1ccc(C(CC(=O)O)NC(=O)Cc2ccccc2)cc1 (stereo not drawn) | -12 | 0 | 2 | -15 | -10 | 0 | 16 | i
Cc1cc(=O)n2[nH]c(SCc3c(F)cccc3Cl)nc2n1 | -15 | 4 | -5 | 3 | 16 | x | x | i
Cc1ccc(NC(=S)N2CCC(N(C)CC3CCCO3)CC2)c(C)c1 (stereo not drawn) | -27 | 1 | 4 | -42 | -8 | -7 | -6 | i
O=[N+]([O-])c1ccc(NC(=S)N/C(=N/CS(=O)(=O)c2ccccc2)c2ccccc2)cc1 | -18 | 3 | -4 | x | -2 | -19 | -9 | i
Cc1cc(=O)oc2cc(OCC(=O)NCCCN3CCOCC3)c(Cl)cc12 | -4 | 0 | 1 | -3 | -9 | -7 | -6 | i
